Six1-Eya2 blk – Six1/Eya2 interaction inhibition; activity change, % (no concentration beside the values); Q15475+O00167; 360,000 compounds, 0.56% hits; AlphaScreen GST-Six1/His-Eya2 binding, biochemical; hits give low values; control for the full effect not named in the record; in the data active = activity change below about -65%; inconclusive = about -30% to -65%; inactive = above about -30%; note: % is set by controls: 0 for no effect and ±100 for the full control effect
Target sequence (O00167 whole entry, looked up): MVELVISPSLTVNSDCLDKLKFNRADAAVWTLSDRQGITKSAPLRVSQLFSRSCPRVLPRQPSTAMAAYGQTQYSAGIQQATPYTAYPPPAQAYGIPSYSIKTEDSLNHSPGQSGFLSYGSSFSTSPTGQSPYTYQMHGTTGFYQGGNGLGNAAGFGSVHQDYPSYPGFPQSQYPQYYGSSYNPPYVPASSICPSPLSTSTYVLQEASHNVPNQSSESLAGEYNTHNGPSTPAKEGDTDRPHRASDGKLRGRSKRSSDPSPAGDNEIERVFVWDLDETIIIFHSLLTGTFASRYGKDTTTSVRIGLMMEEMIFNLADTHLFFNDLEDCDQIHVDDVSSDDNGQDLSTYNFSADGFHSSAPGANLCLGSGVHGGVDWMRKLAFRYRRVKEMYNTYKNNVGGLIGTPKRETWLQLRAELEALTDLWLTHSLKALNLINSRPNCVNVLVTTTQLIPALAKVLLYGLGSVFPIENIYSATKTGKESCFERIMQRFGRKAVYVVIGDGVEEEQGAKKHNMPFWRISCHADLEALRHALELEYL
Target sequence (Q15475 whole entry, looked up): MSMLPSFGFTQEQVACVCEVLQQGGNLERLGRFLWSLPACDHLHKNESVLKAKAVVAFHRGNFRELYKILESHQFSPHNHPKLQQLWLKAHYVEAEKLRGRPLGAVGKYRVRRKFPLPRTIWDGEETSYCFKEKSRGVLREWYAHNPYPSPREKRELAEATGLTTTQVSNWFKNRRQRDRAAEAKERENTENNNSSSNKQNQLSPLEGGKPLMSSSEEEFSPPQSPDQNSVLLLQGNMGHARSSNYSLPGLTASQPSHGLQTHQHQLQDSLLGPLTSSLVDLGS
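Compounds are tested against tagged Six1 and Eya2 proteins bridged by glutathione donor and nickel acceptor beads; after a one-hour incubation at 37 °C without light, AlphaScreen emission is recorded.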
TRPML1 inh – human mucolipin-1 channel inhibition | activity change, negative = inhibition, % (no concentration beside the values) | 390,000 compounds, 0.02% hits | TRPML1-inducible cells, Ca2+ dye fluorescence, FDSS; hits give low values; inhibition of EC80 agonist-evoked calcium signal | Q9GZU1; in the data active means activity change below about -50%; inconclusive means about -30% to -50%; inactive means above about -30%;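 note: stimulus is agonist 54-4 at its EC80 concentration; % is set by controls: 0 for no effect and ±100 for the full control effect; compound concentration not given in the record; the text of the record puts the active cut at -80%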
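Tet-induced TRPML1-DL cells loaded with Ca8 no-wash calcium dye were read kinetically on FDSS. Compound addition was followed by EC80 agonist 54-4 (4 uM final); inhibition was read over 110 s.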
TRPML1 agonist – activates the human TRPML1 channel; 410,000 compounds, 0.12% hits; Q9GZU1; activation, % (test concentration not listed); AID 624414; TRPML1-expressing cells, Ca2+ dye fluorescence, FDSS; host cell line not named in the record; reference of the full effect not given here; in the data active = activation above about 50%; inconclusive = about 30% to 50%; inactive = below about 30%; note: 0% is about no effect; the text of the record puts the active cut at 80%
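Tet-induced TRPML1-DL cells, 1,500 per well, cultured overnight, were loaded with a no-wash Ca2+ dye for 45–90 min. Calcium fluorescence was recorded on the FDSS for 110 s after compound addition, before the EC80 agonist (4 uM 54-4) was added.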
D2 potentiator – potentiates the human D2 dopamine receptor allosterically; AID 624464; potentiation, % (concentration not given with the values); 360,000 compounds, 0.23% hits; P14416; DiscoveRx D2 beta-arrestin cells, luminescence, 90 min; 100% = 57 uM dopamine signal; active = potentiation of 50% or more; inconclusive = 30% to 50%; inactive = 30% or less;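 note: tested on top of an EC20 dose of dopamine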
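PathHunter beta-arrestin assay in DiscoveRx D2 cells. Compounds were added with an EC20 of dopamine (50 nM final) for 90 min at 37 deg C. Luminescence was read 1 h after detection reagent, with 57 uM dopamine as the EC100 control.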
PINK1 expr mod – changes PINK1 expression | PINK1 immunofluorescence, high-content cytometry, 24 h | Potency, µM (highest dose often 76.6 µM), for inactives: top-dose activation (PINK1 increase), hits mostly activators | AID 624263 | 410,000 compounds, 0.2% hits; active = well fitted activation curve with a large enough effect; inconclusive = small, poorly fitted or top-dose-only effect; inactive = flat fitted curve, though single readings scatter; cell line not stated here;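 note: potency is the fitted concentration of half-maximal effect; % of control where 0% means no effect; nearly all actives have a fitted effect of over 65% in size; a mitochondrial uncoupler was the plate control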
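Decision-based qHTS: stable cells, 24 h exposure to five compound concentrations, CCCP as control. Fixed cells stained for PINK1 plus nuclear, mitochondrial and cell markers, cytometer read.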
D2 agonist – agonists of human D2 dopamine receptor (beta-arrestin) | 360,000 compounds, 0.084% hits | P14416 | activation, % (test concentration not listed) | DiscoveRx PathHunter D2 beta-arrestin, luminescence, 90 min; 100% = 57 uM dopamine signal; in the data active = activation above about 40%; inconclusive = about 15% to 40%; inactive = below about 15%; note: compound concentration not given in the record; the text of the record calls up to 30% inactive
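Agonist mode: compounds alone added to overnight-plated D2 PathHunter cells for 90 min at 37 C, with 57 uM final dopamine (EC100) defining full response. Beta-arrestin recruitment detected by chemiluminescent reagent, read after 1 h at ambient temperature.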
* = called active by the depositor; / = no result given; & = joins results of further samples; [ ] = another dose, or the depositor's remark.

No.	canonical_smiles	Six1-Eya2 blk	TRPML1 inh	TRPML1 agonist	D2 potentiator	PINK1 expr mod	D2 agonist
1	CCOc1ccccc1/C=N/NC(=O)CNC(=O)c1ccc(S(=O)(=O)N2CCOCC2)cc1	4	-8	-0.2	-14	5.2%	-6.0
2	COc1ccc(-c2nnc(C3CCN(C(=O)c4ccccc4F)CC3)o2)cc1	/	9	1.7	/	-0.4%	/
3	CCOC(=O)CNC(=S)N1CCn2c(nc3ccccc32)C1	-1	11	0.8	-8	-0.5%	-1.5
4	CCCNC(=O)C1(C)CCN(C(=O)c2ccccc2F)C1 (configuration not stated)	4	/	-0.4	-2	2.2%	-2.0
5	CCOC(=O)Nc1ccc2c(c1)N(C(=O)CN1CCN3CCCC3C1)c1ccccc1CC2 (configuration not stated)	6	9	-0.3	-2	-1.3%	-1.3
6	COc1ccc(S(=O)(=O)Nc2ccc(NC(C)=O)cc2)cc1Cl	9	-9	-0.7	2	0.7%	-0.6
7	Cc1ccc(-c2cn(-c3cccc(Cl)c3)c(S(=O)(=O)CC(=O)Nc3cccc(C)c3)n2)cc1	/	5	-0.1	/	-0.3%	/
8	O=C(COc1cccnc1[N+](=O)[O-])c1c[nH]c2ccccc12	-11	/	/	-13	3.2%	-5.4
9	COc1ccc(C(=O)NCc2ccc(C(=O)O)o2)cc1	-5	4	0.0	-1	-0.7%	1.4
10	Cc1ccc(C(=O)NC(=S)NNC(=O)c2cccc([N+](=O)[O-])c2)cc1	-3	44	14	-2	1.1%	-12
11	Cc1ccc(C2=NNC(C(O)C(O)C(O)CO)S2)cc1 (configuration not stated)	2	-9	0.5	-33	-1.3%	-7.7
12	O=C(NCc1cccnc1)Nc1cccc(Cl)c1	0	-13	0.4	-4	0.0%	-3.7
13	CC(=O)CSc1nc(C(F)(F)F)cc(=O)n1-c1ccccc1	1	-4	-0.4	-8	-1.1%[38.3 µM]	-1.2
14	O=C(c1ccccc1)c1ccc2nc(N3CCN(c4ccc(F)cc4)CC3)c3nncn3c2c1	/	9	-0.4	/	1.8%	/
15	CCC1(CC)NC(=O)N(CC(=O)N2CCN(c3ccccc3F)CC2)C1=O	0	20	-0.5	4	1.0%	-2.6
16	COc1ccc(N2CC(O)=C(c3nc(-c4ccc(Br)cc4)cs3)C2=N)cc1	-6	-10	0.8	-1	8.7%	-1.4
17	O=C1CC(SC2=NCCS2)C(=O)N1c1ccc(Br)cc1 (configuration not stated)	-6	6	0.5	-21	2.3%	-1.1
18	CCn1c(CNC(=O)c2ccc(OC)cc2)nnc1SCC(=O)Nc1cccc(C)c1	/	-3	-1.2	/	2.4%	/
19	CCN(CC)S(=O)(=O)c1cc(Br)ccc1OC	6	10	-0.8	2	-1.0%	-4.9
20	CCC(C)c1c(N)n(S(=O)(=O)c2ccc(C)cc2)oc1=O (configuration not stated)	-77*	-8	0.8	0	1.1%	5.7
21	COCCNC(C)C(=O)C12CC3CC(CC(C3)C1)C2 (configuration not stated)	-1	0	0.7	-9	/	0.8
22	CC(Sc1nncn1C)C(=O)Nc1ccc(Cl)cn1 (configuration not stated)	0	-14	-0.2	-8	1.3%	-2.0
23	COc1ccccc1NC(=O)C(=O)NCCC1CCCCN1S(=O)(=O)c1cccs1 (configuration not stated)	-15	62	0.2	-1	1.3%	-6.3
24	CCOCCOC(=O)c1[nH]c2c(c1C)C(=O)CC(c1cccs1)C2 (configuration not stated)	-9	8	-0.1	-7	6.7%	1.0
25	CC(C)CN(C(=O)COC(=O)Cn1cnc2ccccc2c1=O)C1CCS(=O)(=O)C1 (configuration not stated)	6	-18	2.2	-4	-0.3%	-1.2
26	Cc1ccc(N(CC(=O)N(C)Cc2ccccc2)S(C)(=O)=O)cc1C	4	-1	-0.5	-3	1.2%	0.0
27	O=C1[C@H]2[C@@H](c3ccc(C(F)(F)F)cc3)N[C@]3(CCCN(Cc4ccccc4)C3=O)[C@H]2C(=O)N1Cc1ccccc1	-3	1	0.2	-3	2.1%	-8.0
28	Cc1cnnn1-c1ccc([N+](=O)[O-])cc1	2	-21	0.1	2	-1.6%	-3.1
29	Cc1ccc(S(=O)(=O)NCCCn2ccnc2)cc1C(=O)NC(C)C	-10	/	/	-28	0.7%	12
30	C/C(=N/NC(=O)C1CCCN1C(=O)c1ccc([N+](=O)[O-])cc1)c1ccc(Br)cc1 (configuration not stated)	-6	-8	-0.6	0	0.4%	-1.4
31	CCOC(=O)c1cc(-c2cccc([N+](=O)[O-])c2)n[nH]1	-2	19	-0.1	11	1.5%	5.2
32	COc1cc(C=C(c2nc3ccccc3s2)c2nc3ccccc3s2)ccc1O	-17	26	-0.4	-31	-0.7%	-12
33	CCCn1c(=O)c2c(ncn2C)n(CCC)c1=O	6	-8	-0.4	-5	1.5%	-3.8
34	CCc1ccccc1NC(=O)c1ccc(OCc2c(C)noc2C)cc1	-14	3	0.0	7	0.3%	0.3
35	O=S(=O)(Nc1ccccc1)c1ccc(-c2cnc(C3CC3)o2)cc1	-7	1	5.6	-1	6.9%	2.6
36	Cn1c(=O)c2c(nc(Sc3n[nH]c(N)n3)n2Cc2ccccc2Cl)n(C)c1=O	0	14	-0.9	-5	-1.9%	-1.8
37	Cc1noc(/C=C/N(C)C)c1S(=O)(=O)N1CCCC(C(=O)Nc2ccc(F)cc2F)C1 (configuration not stated)	9	7&-1	-0.2&0.5	-5	1.4%&1.5%	1.3
38	COc1ccccc1/C=C1\SC(=S)N(CCC(=O)Nc2nnc(C)s2)C1=O	2	8	-0.7	-7	1.1%	0.8
39	COC(=O)CCCC(=O)N1CCC(CO)(CCc2ccccc2)CC1	5	-9	0.1	0	0.7%	4.8
40	O=C(NCc1ccccc1Cl)C(=O)NCC(c1ccc2c(c1)OCO2)N1CCOCC1 (configuration not stated)	/	23	1.0	/	-1.1%	/
41	CC(C)n1c(=O)c2ccccc2n1Cc1cn(Cc2ccccc2)nn1	11	-8	-0.6	-6	0.7%	-5.3
42	CCNC(=O)c1c(O)c2c([nH]c1=O)CCCC2	2	/	/	7	0.8%	-1.4
43	Cc1ccc(C)c(CC(=O)N2CCCCC2c2cc(C(=O)Nc3ccc(F)c(Cl)c3)no2)c1 (configuration not stated)	-1	/	3.1	-1	0.5%	-5.8
44	Cc1ccc2c(c1)C(=O)N(CCCCO)C2=O	12	-6	0.4	-3	1.2%	-0.8
45	CCCN(CC(=O)Nc1ccccc1C)C(=O)C1CCN(S(=O)(=O)c2ccc(C)c(C)c2)CC1	-3	0	-1.2	-4	0.7%	2.0

Reformatted screen by screen: part of the list above
(42) CCNC(=O)c1c(O)c2c([nH]c1=O)CCCC2
(40) O=C(NCc1ccccc1Cl)C(=O)NCC(c1ccc2c(c1)OCO2)N1CCOCC1 (configuration not stated)
assay / compound | 42 | 40
Six1-Eya2 blk | 2 | /
TRPML1 inh | / | 23
TRPML1 agonist | / | 1.0
D2 potentiator | 7 | /
PINK1 expr mod | 0.8% | -1.1%
D2 agonist | -1.4 | /

More compounds follow:
No.	canonical_smiles	Six1-Eya2 blk	TRPML1 inh	TRPML1 agonist	D2 potentiator	PINK1 expr mod	D2 agonist
46	Cc1nn(-c2ccccc2)nc1C(=O)Nc1ccc2[nH]ncc2c1	-6	28	1.9	17	1.5%	2.5
47	N#Cc1ccc(Oc2ccc(C(N)=O)cc2)cc1C#N	8	10	3.7	-7	-0.9%	1.3
48	CCOC(=O)CSc1ncnc2c(C(=O)OCC)c3n(c12)CCC3	-1	-22	0.0	-4	-0.8%	-1.9
49	S=C(Nc1ccc(Cl)cc1)NN1CCOCC1	11	-14	-0.1	0	-0.2%	-0.9
50	Cn1ncc2c(Nc3cccc(C(=O)O)c3)ncnc21	-1	14	0.5	-10	4.0%[38.3 µM]	-1.8
51	CCCNC(=O)C(Cc1cccc(C#N)c1)NC(=O)c1cccc([N+](=O)[O-])c1 (configuration not stated)	-3	-3	-0.2	-15	-1.0%	0.5
52	CCCN1C2CCCC1CC(NC(=O)c1ccccc1OC)C2 (configuration not stated)	-4	-3	0.0	-14	-0.6%	-4.6
53	COc1ccccc1-c1noc(CCC(=O)Nc2cccc(C(F)(F)F)c2)n1	0	14	4.2	-7	0.3%	1.9
54	COc1ccc(/C=C/C(=O)NCCc2c[nH]c3ccccc23)cc1OC	-5	/	/	2	0.3%	0.0
55	CCOC(=O)Cc1csc(NC(=O)c2ccc(OC)c(OC)c2)n1	0	-6	0.5	1	15%[38.3 µM]	-0.3

19 compounds out of the list, arranged by formula weight, smallest number first.
No.	canonical_smiles	Six1-Eya2 blk	TRPML1 inh	TRPML1 agonist	D2 potentiator	PINK1 expr mod	D2 agonist
44	Cc1ccc2c(c1)C(=O)N(CCCCO)C2=O	12	-6	0.4	-3	1.2%	-0.8
42	CCNC(=O)c1c(O)c2c([nH]c1=O)CCCC2	2	/	/	7	0.8%	-1.4
47	N#Cc1ccc(Oc2ccc(C(N)=O)cc2)cc1C#N	8	10	3.7	-7	-0.9%	1.3
50	Cn1ncc2c(Nc3cccc(C(=O)O)c3)ncnc21	-1	14	0.5	-10	4.0%[38.3 µM]	-1.8
49	S=C(Nc1ccc(Cl)cc1)NN1CCOCC1	11	-14	-0.1	0	-0.2%	-0.9
52	CCCN1C2CCCC1CC(NC(=O)c1ccccc1OC)C2 (configuration not stated)	-4	-3	0.0	-14	-0.6%	-4.6
46	Cc1nn(-c2ccccc2)nc1C(=O)Nc1ccc2[nH]ncc2c1	-6	28	1.9	17	1.5%	2.5
35	O=S(=O)(Nc1ccccc1)c1ccc(-c2cnc(C3CC3)o2)cc1	-7	1	5.6	-1	6.9%	2.6
39	COC(=O)CCCC(=O)N1CCC(CO)(CCc2ccccc2)CC1	5	-9	0.1	0	0.7%	4.8
48	CCOC(=O)CSc1ncnc2c(C(=O)OCC)c3n(c12)CCC3	-1	-22	0.0	-4	-0.8%	-1.9
34	CCc1ccccc1NC(=O)c1ccc(OCc2c(C)noc2C)cc1	-14	3	0.0	7	0.3%	0.3
51	CCCNC(=O)C(Cc1cccc(C#N)c1)NC(=O)c1cccc([N+](=O)[O-])c1 (configuration not stated)	-3	-3	-0.2	-15	-1.0%	0.5
53	COc1ccccc1-c1noc(CCC(=O)Nc2cccc(C(F)(F)F)c2)n1	0	14	4.2	-7	0.3%	1.9
36	Cn1c(=O)c2c(nc(Sc3n[nH]c(N)n3)n2Cc2ccccc2Cl)n(C)c1=O	0	14	-0.9	-5	-1.9%	-1.8
38	COc1ccccc1/C=C1\SC(=S)N(CCC(=O)Nc2nnc(C)s2)C1=O	2	8	-0.7	-7	1.1%	0.8
40	O=C(NCc1ccccc1Cl)C(=O)NCC(c1ccc2c(c1)OCO2)N1CCOCC1 (configuration not stated)	/	23	1.0	/	-1.1%	/
37	Cc1noc(/C=C/N(C)C)c1S(=O)(=O)N1CCCC(C(=O)Nc2ccc(F)cc2F)C1 (configuration not stated)	9	7&-1	-0.2&0.5	-5	1.4%&1.5%	1.3
43	Cc1ccc(C)c(CC(=O)N2CCCCC2c2cc(C(=O)Nc3ccc(F)c(Cl)c3)no2)c1 (configuration not stated)	-1	/	3.1	-1	0.5%	-5.8
45	CCCN(CC(=O)Nc1ccccc1C)C(=O)C1CCN(S(=O)(=O)c2ccc(C)c(C)c2)CC1	-3	0	-1.2	-4	0.7%	2.0
